PD-1 reverse act = activators reversing PD-1 mediated T-cell inhibition, primary screen, luminescence, primary human CD4 T cells, PD-L1 beads | CellTiter-Glo 96 h | 29,000 tested, under 10 active | activation, % (no concentration beside the values);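 active means replicate mean of 50% or more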;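 further: 0% = median vehicle wells and 100% = positive control; 100 nL library stock added to about 50 µL; numbers are from one replicate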
Shh pathway inh = Hedgehog pathway signaling inhibitors, primary screen, luminescence, Shh-LIGHT2 cells, Gli-luciferase; Shh-LIGHT2 Gli-luciferase reporter, 30 h; inhibition, % (concentration not given with the values); hit rate 2.1% among 22,000; AID 2313, 2010;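 active means replicate mean of 65% or more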;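 further: pathway switched on by Shh-conditioned medium diluted 1 in 25 in low serum; 100 nL library stock added to about 40 µL; 0% = median of neutral wells and 100% = positive control level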
YB-1 expression = inhibitors of YB-1 gene expression, primary screen, cell-based, fluorescence; U2OS, qRT-PCR YB-1 vs CDIP delta delta Cp, 16 h; hits give high values; zero = DMSO, each unit about twofold; delta delta Cp (YB-1 minus CDIP) (concentration not given with the values); hit rate 0.37% among 30,000; AID 434959, 2010;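 active means delta delta Cp rounded down to an integer at or above 3, about 3 SD of DMSO wells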;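 further: higher means less YB-1 transcript or more CDIP transcript relative to DMSO; stock transfer was 100 nL into about 100 µL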
MITF inhib = inhibitors of MITF, primary screen, MITF inhibitor project, cell-based, luminescence | hit rate 0.28% among 37,000 | TRPM1 promoter luciferase, 24 h | inhibition, % (no concentration beside the values);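 active means most replicates at 85% or more, or half of them and the mean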;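 further: human melanocyte line stably carrying TRPM1 promoter luciferase reporter; 0% = vehicle wells and 100% = a positive control; the first replicate is given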
* hit, by the source's call; nt = not tested or not shown. An excerpt; rates above refer to the full screens.

SMILES	PD-1 reverse act	Shh pathway inh	YB-1 expression	MITF inhib
C[C@H]1CN([C@@H](C)CO)C(=O)c2cc(NC(=O)CCCCCC(=O)Nc3ccccc3N)ccc2O[C@H]1CN(C)S(=O)(=O)c1cccs1	0.3	nt	0.2	9
Cc1ccc(CNC(=O)Nc2ccccc2)n1C	-0.3	-17	-0.45	-12
CN(C)C(=O)CSc1nc2sc3c(c2c(=O)[nH]1)CCCC3	1.7	nt	nt	-25
C[C@@H]1CN([C@H](C)CO)C(=O)c2cc(N(C)C)ccc2O[C@@H]1CN(C)CC1CCCCC1	nt	-14	0.21	-2
NC1=NC(c2ccccc2)C(C(=O)c2ccccc2)N1 (stereo not drawn)	-0.1	-22	-0.49	-1
Cc1ccc(S(=O)(=O)Nc2ccc3c(c2)C(=O)N([C@H](C)CO)C[C@H](C)[C@H](CN(C)S(=O)(=O)c2ccccc2)OCCCC[C@@H](C)O3)cc1	-6.9	30	0.57	26
C[C@H]1CN([C@@H](C)CO)C(=O)Cc2cc(NC(=O)NC3CCCCC3)ccc2O[C@@H]1CN(C)C(=O)Nc1cccc2ccccc12	0.3	nt	-0.24	7
C[C@H](CO)N1C[C@H](C)[C@@H](CN(C)S(=O)(=O)c2cn(C)cn2)Oc2ccc(NC(=O)C3CCCCC3)cc2C1=O	2.1	nt	0.23	0
COc1cccc(CN2CCN(C(=O)c3cccs3)CC2)c1	0.1	nt	0.3	-3
Cc1ccc(N(CC(=O)Nc2c(C)cc(C)cc2C)S(C)(=O)=O)cc1	-0.3	nt	nt	4
COc1ccc(CN(C)C[C@@H]2OCCCC[C@@H](C)Oc3ccc(NC(=O)C4CCCCC4)cc3C(=O)N([C@H](C)CO)C[C@@H]2C)cc1	-0.3	nt	-0.084	0
C[C@H]1CN([C@@H](C)CO)C(=O)c2cccc(N(C)C)c2O[C@@H]1CN(C)S(=O)(=O)c1ccccc1	nt	-28	-0.26	0
C[C@H](CO)N1C[C@H](C)[C@H](CN(C)Cc2ccccc2)Oc2c(NS(C)(=O)=O)cccc2C1=O	0.2	-44	-0.15	-4
C[C@H]1CN([C@@H](C)CO)C(=O)c2cc(NC(=O)Nc3ccc(C(F)(F)F)cc3)ccc2O[C@@H]1CN(C)Cc1ccc2c(c1)OCO2	-5.3	nt	-0.93	-12
C[C@@H]1CN([C@H](C)CO)C(=O)c2cccc(NC(=O)Nc3ccc(F)cc3)c2O[C@@H]1CN(C)Cc1ccc(-c2ccccc2)cc1	-2.4	10	-0.85	-16
COc1cccc(NC(=O)CSc2nc(N)cc(N)n2)c1	-0.2	nt	nt	-27
COc1ccc(S(=O)(=O)N(C)CC(=O)Nc2ccc(C(N)=O)cc2)cc1C	0.3	nt	nt	23
CC(=O)Nc1ccc(OCC(=O)Nc2ccc3c(c2)oc2ccccc23)cc1	-1.0	nt	nt	-30
CCCC12CCC(c3ccc(C#N)cc3)(CC1)CC2	0.1	nt	0.07	-66
Nc1ccc(C(=O)OCc2nc3cc4ccccc4cc3[nH]2)cc1	0.4	nt	0.61	-1

Look-ups from the results shown.
In PD-1 reverse act, COc1cccc(NC(=O)CSc2nc(N)cc(N)n2)c1 is listed with -0.2
In MITF inhib, C[C@H](CO)N1C[C@H](C)[C@H](CN(C)Cc2ccccc2)Oc2c(NS(C)(=O)=O)cccc2C1=O is listed with -4
In YB-1 expression, C[C@H]1CN([C@@H](C)CO)C(=O)c2cc(NC(=O)Nc3ccc(C(F)(F)F)cc3)ccc2O[C@@H]1CN(C)Cc1ccc2c(c1)OCO2 is listed with -0.93
In MITF inhib, C[C@@H]1CN([C@H](C)CO)C(=O)c2cc(N(C)C)ccc2O[C@@H]1CN(C)CC1CCCCC1 is listed with -2
In MITF inhib, COc1ccc(S(=O)(=O)N(C)CC(=O)Nc2ccc(C(N)=O)cc2)cc1C is listed with 23
In YB-1 expression, Nc1ccc(C(=O)OCc2nc3cc4ccccc4cc3[nH]2)cc1 is listed with 0.61

Other results.
SMILES	PD-1 reverse act	Shh pathway inh	YB-1 expression	MITF inhib
O=C(CSc1ccc([N+](=O)[O-])cn1)N1CCc2ccccc21	-0.6	nt	nt	-20
C[C@@H]1CCCCO[C@@H](CN(C)C)[C@@H](C)CN([C@H](C)CO)C(=O)c2cc(NC(=O)Nc3ccc(C(F)(F)F)cc3)ccc2O1	nt	-6	-0.11	-2
COc1ccc(CN(C)C[C@H]2Oc3c(NS(C)(=O)=O)cccc3C(=O)N([C@H](C)CO)C[C@H]2C)cc1	1.9	32	0.46	-10
C[C@@H]1CN([C@@H](C)CO)C(=O)c2cc(NS(=O)(=O)c3ccccc3)ccc2O[C@@H]1CN(C)Cc1ccc(-c2ccccc2)cc1	nt	nt	0.2	40
Cc1nccc(-c2cccc(NC(=O)Nc3ccccc3)c2)n1	-0.8	nt	-0.72	-8
COc1ccc(S(=O)(=O)N(CC(N)=O)c2ccc(F)cc2)cc1	0.3	nt	nt	0
CNC[C@H]1Oc2c(N)cccc2C(=O)N([C@@H](C)CO)C[C@H]1C	nt	nt	-0.34	-18
O=C(CSc1nc2c(c(=O)n1Cc1ccco1)C1(CCCC1)Cc1ccccc1-2)c1cccs1	-1.2	nt	nt	0
C[C@@H]1CN([C@H](C)CO)C(=O)c2cccc(NC(=O)C3CC3)c2O[C@H]1CN(C)C(=O)Nc1ccc(C(F)(F)F)cc1	nt	-93	-0.42	-5
Cc1noc(C)c1NC(=O)N(C)C[C@@H]1Oc2ccc(NC(=O)Nc3cccc4ccccc34)cc2C(=O)N([C@H](C)CO)C[C@H]1C	nt	0	-0.22	3
C[C@H]1CN([C@@H](C)CO)C(=O)Cc2cc(NC(=O)Nc3ccc(C(F)(F)F)cc3)ccc2O[C@H]1CN(C)Cc1ccncc1	-2.4	20	0.12	23
C[C@H](CO)N1C[C@H](C)[C@@H](CN(C)Cc2ccccc2)Oc2ccc(NC(=O)Nc3ccc(C(F)(F)F)cc3)cc2C1=O	-3.6	30	-0.087	-1
C[C@H](CO)N1C[C@H](C)[C@H](CN(C)Cc2ccc(C(=O)O)cc2)Oc2ccc(N(C)C)cc2C1=O	0.8	nt	-0.048	-1
COc1ccc(S(=O)(=O)N(C)C[C@@H]2Oc3ccc(NC(=O)C4CC4)cc3CC(=O)N([C@H](C)CO)C[C@H]2C)cc1	1.1	-6	0.33	-3
CC(C)(O)C1Oc2cc3occ(-c4ccc(O)cc4)c(=O)c3c(O)c2C1O (stereo not drawn)	-1.4	55	-0.27	-3
C[C@H]1CN([C@@H](C)CO)C(=O)c2cc(NC(=O)CCN3CCOCC3)ccc2O[C@H]1CN(C)Cc1ccc(C(=O)Nc2ccccc2N)cc1	-0.7	nt	-0.19	-12
COc1ccc2c(c1)c(CC(=O)N1CCOCC1)c(C)n2C(=O)c1ccc(Cl)cc1	nt	-47	0.37	-1
CNC[C@H]1Oc2ccc(NC(=O)CCC(F)(F)F)cc2CC(=O)N([C@@H](C)CO)C[C@H]1C	nt	-8	0.17	5
COc1ccc(NC(=O)N(C)C[C@@H]2Oc3ccc(NS(=O)(=O)c4ccccc4)cc3CC(=O)N([C@H](C)CO)C[C@@H]2C)cc1	nt	-34	0.17	-7
CC(=O)c1cccc(NC(=O)CN(c2ccc(F)c(Cl)c2)S(C)(=O)=O)c1	2.9	nt	nt	-30

Entries shown so far that contain an NH in an aromatic ring:
SMILES	PD-1 reverse act	Shh pathway inh	YB-1 expression	MITF inhib
CN(C)C(=O)CSc1nc2sc3c(c2c(=O)[nH]1)CCCC3	1.7	nt	nt	-25
Nc1ccc(C(=O)OCc2nc3cc4ccccc4cc3[nH]2)cc1	0.4	nt	0.61	-1

Following part:
SMILES	PD-1 reverse act	Shh pathway inh	YB-1 expression	MITF inhib
Cc1ccc(S(=O)(=O)Nc2ccc3c(c2)C(=O)N([C@H](C)CO)C[C@@H](C)[C@H](CN(C)S(=O)(=O)c2cn(C)cn2)O3)cc1	0.1	-15	-0.42	-2
CC(C)NC(=O)Nc1ccc2c(c1)C(=O)N([C@@H](C)CO)C[C@@H](C)[C@@H](CN(C)S(=O)(=O)c1ccc(Cl)cc1)O2	0.7	1	0.3	-8
CC1(C)CC[C@]2(C(=O)O[C@@H]3O[C@H](CO)[C@@H](O)[C@H](O)[C@H]3O)CC[C@]3(C)C(=CCC4[C@@]5(C)C[C@@H](O)[C@H](O)[C@](C)(CO)C5CC[C@]43C)C2[C@@H]1O (stereo partly drawn)	-1.4	-5	0.022	12
C[C@@H]1CN([C@@H](C)CO)C(=O)c2cccc(NC(=O)Nc3ccccc3)c2O[C@H]1CN(C)Cc1ccncc1	nt	0	0.43	2
c1cncc(-c2nc3ccc4ccccc4c3c3c2CCCC3)c1	-0.8	31	0.63	4
C[C@H]1CN([C@@H](C)CO)C(=O)Cc2cc(NS(=O)(=O)c3cn(C)cn3)ccc2O[C@H]1CN(C)C(=O)Nc1ccc2c(c1)OCO2	nt	-28	-0.12	-7
C[C@H]1CN([C@@H](C)CO)C(=O)Cc2cc(NC(=O)Nc3ccc4c(c3)OCO4)ccc2O[C@@H]1CN(C)Cc1ccc(Cl)c(Cl)c1	0.8	-33	0.38	39
CCOc1ccc(-n2c(SCC(=O)N3CCOCC3)nnc2-c2ccncc2)cc1	1.1	nt	nt	1
COC(=O)c1c(NC(=O)C(C)Oc2ccccc2F)sc2c1CCC2 (stereo not drawn)	-1.0	nt	nt	-18
Cc1ccc(S(=O)(=O)Nc2ccc3c(c2)C(=O)N([C@H](C)CO)C[C@H](C)[C@@H](CN(C)S(=O)(=O)c2c(C)noc2C)OCCCC[C@@H](C)O3)cc1	nt	4	-0.24	18
Cc1noc(C)c1NC(=O)Nc1cccc2c1O[C@H](CN(C)S(=O)(=O)c1ccccc1)[C@@H](C)CN([C@H](C)CO)C2=O	0.8	-54	0.22	-8
Cc1cc(Br)ccc1NC(=O)CCN1C(=O)c2ccccc2S1(=O)=O	1.9	nt	nt	-17
COC(=O)C1=C(N)Oc2cc(C)oc(=O)c2C1c1cccnc1 (stereo not drawn)	0.2	nt	-0.31	-1
C[C@H]1CN([C@@H](C)CO)C(=O)c2cc(NC(=O)Nc3ccc4c(c3)OCO4)ccc2O[C@@H]1CN(C)S(=O)(=O)c1ccc(F)cc1	-0.2	-2	0.31	-6
C[C@H]1CN([C@@H](C)CO)C(=O)Cc2cc(NS(=O)(=O)c3ccccc3)ccc2O[C@H]1CN(C)C(=O)Nc1ccc(C(F)(F)F)cc1	0.9	-20	0.27	-7
CC(C)NC(=O)Nc1ccc2c(c1)C(=O)N([C@H](C)CO)C[C@H](C)[C@H](CN(C)Cc1ccc(-c3ccccc3)cc1)O2	-0.2	0	0.39	2
C[C@H]1CN([C@@H](C)CO)C(=O)c2cc(NC(=O)NC3CCCCC3)ccc2O[C@H]1CN(C)Cc1ccc(-c2ccccc2)cc1	0.1	-10	0.28	12
Cc1noc(C)c1S(=O)(=O)N(C)C[C@@H]1Oc2ccc(NC(=O)C3CC3)cc2CC(=O)N([C@H](C)CO)C[C@H]1C	0.4	nt	0.038	-7
C[C@H]1CN([C@@H](C)CO)C(=O)c2cccc(NC(=O)Nc3cccc4ccccc34)c2O[C@H]1CN(C)Cc1ccc(C(=O)Nc2ccccc2N)cc1	-2.3	nt	0.34	15
Cc1cccc(NC(=O)CSc2nc3ccccc3c(=O)n2C)c1C	-2.4	nt	nt	39
C[C@H](CO)N1C[C@H](C)[C@H](CN(C)C(=O)Nc2cccc3ccccc23)Oc2ccc(NC(=O)C3CC3)cc2C1=O	nt	nt	0.77	3
COc1ccc(S(=O)(=O)N(C)C[C@@H]2Oc3c(NC(=O)NC4CCCCC4)cccc3C(=O)N([C@H](C)CO)C[C@@H]2C)cc1	0.1	7	0.59	0
C[C@@H]1CN([C@@H](C)CO)C(=O)c2cccc(NC(=O)C3CCCCC3)c2O[C@@H]1CN(C)S(=O)(=O)c1ccc(Cl)cc1	-1.7	-1	0.27	25
C[C@@H]1CCCCO[C@@H](CN(C)C(=O)c2ccncc2)[C@@H](C)CN([C@H](C)CO)C(=O)c2cc(NC(=O)Cc3ccccc3)ccc2O1	-0.3	nt	0.27	-5
C[C@@H]1CCCCO[C@@H](CN(C)C(=O)Nc2ccc3c(c2)OCO3)[C@@H](C)CN([C@H](C)CO)C(=O)c2cc(NC(=O)c3ccccc3)ccc2O1	0.9	nt	-0.38	-11
Cc1noc(C)c1NC(=O)Nc1ccc2c(c1)C(=O)N([C@@H](C)CO)C[C@@H](C)[C@H](CN(C)S(=O)(=O)c1cn(C)cn1)O2	nt	15	-0.047	-10
C[C@H](CO)N1C[C@H](C)[C@H](CN(C)Cc2ccccc2)Oc2ccc(NC(=O)C3CCCCC3)cc2C1=O	-0.5	nt	-0.12	-10
C[C@@H]1CN([C@H](C)CO)C(=O)Cc2cc(NC(=O)Nc3ccc(C(F)(F)F)cc3)ccc2O[C@H]1CN(C)C(=O)Nc1ccc(C(F)(F)F)cc1	-2.7	-8	-0.41	11
C[C@H](CO)N1C[C@H](C)[C@@H](CN(C)Cc2ccc(C(F)(F)F)cc2)Oc2c(NS(=O)(=O)c3ccc(F)cc3)cccc2C1=O	-0.5	12	0.12	0
Cc1cc(=O)[nH]c(SCC(=O)N2CCc3ccccc3C2)n1	-1.6	nt	nt	-17
COCC(=O)Nc1cc(Sc2ccccc2)ccc1N=C(NC(C)=O)NC(C)=O	0.5	-21	-0.17	2
